# Screening results (PubChem)
# TAR Tat displ = HIV-1 TAR-Tat binding disruption. HIV-1 TAR RNA, Tat peptide displacement FRET; stronger effect = higher value. z-score (concentration not given with the values). hit rate 0.6% among 100,000. AID 1259389;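 further: score is relative to mean and SD of negative controls; some compounds called inactive have numbers as strong as hits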
# CDC25B-CDK2 inh = human CDC25B-CDK2/CyclinA binding inhibition | P30305+P24941 | HTRF CDC25B-CDK2/CyclinA binding, anti-His/anti-Flag; stronger effect = higher value | z-score (no concentration beside the values) | hit rate 0.72% among 94,000 | AID 1259370;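 further: score is relative to mean and SD of negative controls; strong numbers were not always called active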
# Active calls of the source: *; x = not tested or not shown.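 How the source made its calls: active means z-score from 3 up in half or more of its runs; inactive means the rest.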 Outcome played no part in choosing rows; overall some 0.89% were active at least once.
Compound,TAR Tat displ,CDC25B-CDK2 inh
O=C(CSc1nccn(-c2ccccc2)c1=O)c1ccc(Cl)cc1,0.44,x
COc1ccc(CCNCc2cccn2-c2nnc(N3CCOCC3)s2)c(OC)c1,-0.68,x
CCCn1c(NCc2c[nH]c3ccccc23)nc2ccccc21,x,-0.19
Cc1ccc(C)c(N2CCN(c3cnn(-c4nc5ccccc5o4)c(=O)c3Cl)CC2)c1,1.24,-3.48
COc1ccc(-c2cc(C(F)(F)F)nc(SCC(N)=O)n2)cc1,-0.51,-0.48
O=[N+]([O-])c1ccc(CO/N=C(/c2ccc(Cl)cc2)C2CC2)cc1,x,0.37
CC1=C(C(=O)OC2CCCC2)C(c2coc3ccc(C)cc3c2=O)C2=C(CC(C)(C)CC2=O)N1 (stereo unspecified),2.48,-2.21
CC(C)CCNC(=O)c1cnc2sc3c(n2c1=O)CCCC3,1.05,x
COCc1cc(=O)n2[nH]c(-c3ccc(Br)cc3)cc2n1,x,-8.78
CCCc1cc(Sc2ccc(N(C)C)cc2)n2ncnc2n1,1.54,x
Cc1cc(C#N)c2c(c1)-c1ccccc1CC2,x,-2.36
CCN1CCN(C(=O)Cn2nc(C)c3sc4ccccc4c3c2=O)CC1,2.46,-2.65
O=C(CSc1ccc2nnc(-c3ccc(F)cc3)n2n1)Nc1nc2ccccc2s1,x,-0.51
O=C(CSc1ccc2nc(-c3ccccc3)cn2n1)NC1CCCCC1,0.39,x
CCOC(=O)c1c(NC(C)=O)sc(C(=O)NC2CCCC2)c1C,x,0.06
COc1ccc(OC)c(C(=O)c2coc3ccc(O)c(CN(C)C)c23)c1,0.45,-1.43
O=C(c1ccco1)N1N=C2CCCCC2C1(O)C(F)(F)F (stereo unspecified),x,-2.48
CCOC(=O)c1c(S(=O)(=O)Nc2ccc(F)cc2Cl)c(C)n(C)c1C,1.94,x
Cn1cc(-c2cc3n(n2)CCCN3C(=O)CCC(=O)NC2CCCCC2)c2ccccc21,1.95,x
CCOC(=O)CC(=O)CSc1nnc(Cn2c(=O)sc3ccccc32)n1-c1ccccc1C,0.08,x
CCOC(=O)CSc1nc2ccccc2o1,0.29,-2.04
Cn1ncc2c(N3CCN(c4ccc(F)cc4)CC3)ncnc21,2.41,x
Cc1ccc(NS(=O)(=O)c2ccc3c(c2)CC(=O)N3)c(C)c1,-0.73,-0.28
O=C(Cn1ncn2cccc2c1=O)NCCC1=CCCCC1,0.56,-0.38
COc1ccc2c(c1OC)C(=O)OC2Nc1ccc(Br)cn1 (stereo unspecified),-1.31,-0.78

# Structural class, the entries above containing a thiophene ring, fused or not (2)
Compound,TAR Tat displ,CDC25B-CDK2 inh
CCN1CCN(C(=O)Cn2nc(C)c3sc4ccccc4c3c2=O)CC1,2.46,-2.65
CCOC(=O)c1c(NC(C)=O)sc(C(=O)NC2CCCC2)c1C,x,0.06

# Next section
Compound,TAR Tat displ,CDC25B-CDK2 inh
COCCOC(=O)c1ccc2nc(N)sc2c1,2.67,-0.83
CC1CCN(C(=O)c2ccc(N3CCc4ccccc43)s2)CC1,-1.32,x
O=C(Cn1c(=O)n(Cc2ccccn2)c(=O)c2sc3ccccc3c21)c1ccc(F)cc1,0.45,-0.59
CC1CCN(CCNc2cc(N(C)C)c3noc4c3c2C(=O)c2ccccc2-4)CC1,1.8,-2.49
Cc1cccc(N2C(=O)C3CN=NC3(C)C2=O)c1 (stereo unspecified),1.47,-1.3
O=C(NC1CCCCC1)c1ccc2c(Cl)c3c(nc2c1)CCC3,-0.04,-1.32
CCOC(=O)N1CCN(c2nc(-c3ccccc3)cc(C(F)(F)F)n2)CC1,0.17,-0.17
CCS(=O)(=O)c1ccc(O)c(Nc2cc(C)nc(SC)n2)c1,-0.08,-1.44
Cc1c2n(c3ccccc13)CC/C2=N\O,x,-1.17
CCC1(C)Cc2ccccc2-c2[nH]c(=O)n(CC(C)C)c(=O)c21 (stereo unspecified),0.3,-1.81
O=C(CSc1ccc(Cl)cc1)OCc1cc(=O)n2nc(-c3cccs3)sc2n1,-0.47,x
FC(F)C(F)(F)C1=Nc2ccccc2N=C(c2cccs2)C1,x,0.62
CCOC(=O)C1=C(c2ccccc2)OC(N)=C(C#N)C1c1ccc(C(F)(F)F)cc1 (stereo unspecified),x,-1.88
COc1ccc(C2C3=C(CCCC3=O)Nc3ncnn32)cc1OC (stereo unspecified),-1.07,-0.18
Cc1c(C(=O)NCC(c2ccco2)N(C)C)oc2ccc(F)cc12 (stereo unspecified),0.34,-1.96
Clc1ccc(CNc2ncnc3onc(-c4ccc(Cl)cc4)c23)cc1,0.9,-1.48
CC(C)(C)c1ccc(C2NC(=O)c3n[nH]c(-c4cccs4)c32)cc1 (stereo unspecified),0.82,-0.56
O=C(CSC(=O)c1ccco1)Nc1cc(C(F)(F)F)cc(C(F)(F)F)c1,x,-1.74
O=[N+]([O-])c1ccc(C2CC2(Br)Br)cc1 (stereo unspecified),x,-2.78
Cc1ccc(NS(=O)(=O)c2ccc(-n3cccn3)cc2)c(Cl)c1,0.88,x
O=S(=O)(Cc1cccc(C(F)(F)F)c1)Cc1nc(-c2cccc(F)c2)cs1,x,-0.94
CN1c2ccsc2-c2nc(SCC(=O)c3ccc(Cl)cc3)ncc2S1(=O)=O,x,-0.86
Cc1ncc(-c2ccc(C)c(S(=O)(=O)Nc3ccc(C(C)C)cc3)c2)o1,0.21,x
CCC(C(=O)NC1CCCc2ccccc21)n1nc(C)n2c(cc3occc32)c1=O (stereo unspecified),2.24,-1.93
O=C(NCCc1nc2ccccc2n1CCC1CCCCC1)c1ccco1,1.31,-0.06

# As a short view, 5 of the compounds above.
Compound,TAR Tat displ,CDC25B-CDK2 inh
O=S(=O)(Cc1cccc(C(F)(F)F)c1)Cc1nc(-c2cccc(F)c2)cs1,x,-0.94
CN1c2ccsc2-c2nc(SCC(=O)c3ccc(Cl)cc3)ncc2S1(=O)=O,x,-0.86
Cc1ncc(-c2ccc(C)c(S(=O)(=O)Nc3ccc(C(C)C)cc3)c2)o1,0.21,x
CCC(C(=O)NC1CCCc2ccccc21)n1nc(C)n2c(cc3occc32)c1=O (stereo unspecified),2.24,-1.93
O=C(NCCc1nc2ccccc2n1CCC1CCCCC1)c1ccco1,1.31,-0.06

# Going on with the list:
Compound,TAR Tat displ,CDC25B-CDK2 inh
CN(CC(=O)N1CCCCCC1)S(=O)(=O)c1cccc2nsnc12,x,-0.54
CCn1cc(/C=C/c2nc3ccccc3c(=O)n2CCCO)c2ccccc21,0.61,-1.49
CC1CSc2ccc(S(=O)(=O)NCCC3=CCCCC3)cc2NC1=O (stereo unspecified),-0.56,x
Cc1ccc(S(=O)(=O)n2nc(-c3ccco3)nc2NCc2cccs2)cc1,2.32,-1.9
Cc1ccc2[nH]c3c(=O)n(CC(=O)N4CCN(Cc5ccc6c(c5)OCO6)CC4)ncc3c2c1,0.2,x
Cc1ccc(S(=O)(=O)[C@H]2CS(=O)(=O)C[C@@H]2N2CCN(Cc3ccccc3)CC2)cc1,0.68,-1.07
CCNC(=O)c1cnc(N2CCCC2)nc1,1.15,x
COc1ccc2cc(S(=O)(=O)c3ccc(Br)cc3)c(=O)oc2c1,x,0.64
c1cc2c(cc1-c1nnc(CN3CCN(C4CCCCC4)CC3)o1)OCO2,1.25,-0.87
CCOC(=O)CSc1nnc(-c2ccc(C)cc2)o1,2.49,-0.79
O=C(C1CCN(c2nnc(N3CCCC3=O)s2)CC1)N1CCN(c2ccccc2)CC1,-0.52,-1.17
CCn1nc(SCC(=O)NCc2ccccc2)n2c(=O)c3c(nc12)-c1ccccc1CC3(C)C,0.79,-1.28
O=C1C(Cc2ccccc2)N=C2c3ccccc3N=C(SCc3cc(=O)n4cc(Cl)ccc4n3)N12 (stereo unspecified),1.64,x
CC1CCC(Nc2c(-c3ccc(F)cc3)nc3c(C#N)c[nH]n23)CC1 (stereo unspecified),-0.68,0.05
O=C(NC1CCCc2ccccc21)c1cc(S(=O)(=O)N2CCCCC2)c[nH]1 (stereo unspecified),3.25,x
CCC1Sc2ccc(S(=O)(=O)CCC(=O)N3CC(C)CC(C)C3)cc2NC1=O (stereo unspecified),-0.69,x
Fc1cccc(Cl)c1CNCCCSc1nnnn1-c1ccccc1,1.06,-1.87
CSc1ccccc1NC(=O)c1cc2n(n1)C(C(F)(F)F)CC(c1ccc3c(c1)OCO3)N2 (stereo unspecified),1.63,0.03
Cc1ccc(N(C)S(=O)(=O)c2cc(-c3cc(C)no3)ccc2C(C)C)cc1,-0.74,x
O=C(NC1CCCc2ccccc21)C1CCN(C(=O)c2sccc2-n2cccc2)CC1 (stereo unspecified),x,-0.58
Cc1ccc2c(C)c(C(=O)N(Cc3ccccc3)C3CCS(=O)(=O)C3)oc2c1 (stereo unspecified),-2.19,-2.31
CC1CCN(CCCNS(=O)(=O)c2ccc3c(c2)n(C)c(=O)c(=O)n3C)CC1,1.24,-2.26
CCOC(=O)N1CCN(c2c(N3CC=C(c4ccccc4)CC3)c(=O)c2=O)CC1,0.13,-2.17
CCN1C(=O)N(c2cc(C)ccc2C)S(=O)(=O)c2ccccc21,0.08,x
COCC(=O)N[C@@H](C(=O)N1NCCC[C@H]1C(=O)N[C@@H](Cc1ccccc1)[C@@H](O)[C@H](C)C(=O)N[C@H]1CCN(C(C)=O)C1=O)[C@H](O)C(C)C,1.73,x
S=C(Nc1ccc2ccccc2c1)Nc1cc(Cl)c(Cl)cc1Cl,x,1.29
Cn1c(SCc2ccc(F)cc2)nc(=O)c2c1NC(=O)CC2c1cccc(F)c1F (stereo unspecified),1.06,-2.26
N#Cc1ccc(N2CCCN(S(=O)(=O)c3cccs3)CC2)nc1,x,-1.47
Brc1ccc(-c2csc(Nc3ccncc3)n2)cc1,x,-0.6
Cc1nc2c(c(C)c1CCC(=O)NCCCN1CCCCC1)c(=O)n(C)c(=O)n2C,0.89,1.19
CC(C)(C)OC(=O)NCc1n[nH]c(=S)n1-c1ccccc1,x,-2.77
CCN(CC)C(=O)CSc1nc(-c2ccc(C)cc2)nc2c1Cc1c(CO)cnc(C)c1O2,1.17,x
Cc1cccc2c1nc(-c1ccccc1)n1nnnc21,x,-1.24
O=C(Nc1cccnc1)c1cnn2c(C(F)(F)F)cc(-c3cccs3)nc12,0.86,x
Brc1ccc2ncnc(NCC3CCCO3)c2c1 (stereo unspecified),x,1.41
O=c1ccc(-c2ccc(S(=O)(=O)N(CCN3CCOCC3)Cc3ccco3)s2)n[nH]1,-0.6,x
O=C(CN1C(=O)c2ccccc2S1(=O)=O)N(Cc1ccccc1O)c1cccc2ccccc12,0.3,-0.75
O=C(c1ccccc1)c1cn(Cc2cccc(F)c2)c2ccccc2c1=O,0.68,-0.84
Cn1c(CC2Sc3ccccc3NC2=O)nnc1SCC(=O)Nc1cccc(C(F)(F)F)c1 (stereo unspecified),x,3.43
COc1ccc(OCC(=O)OCc2cc(=O)n3nc(C4CCCCC4)sc3n2)cc1,0.32,x
CC(C)OC(=O)CSc1nc2c(cc1C#N)C(=O)CCC2,2.17,-1.99
COc1ccc(N2C(=O)CC(Sc3nc(C)c4ccccc4n3)C2=O)cc1 (stereo unspecified),-0.06,-0.97
Cc1nn(CC(=O)N2CCCC2)c(=O)c2cccn12,1.94,0.36
CCOc1ccc(Cc2nnc(SC(C)C(=O)O)n2C)cc1 (stereo unspecified),1.46,-1.42
O=C(CN1C(=O)CCS(=O)(=O)c2ccccc21)Nc1ccc2c(c1)OCCO2,-1.38,-2.16
CCOc1ccc2c(=O)c(-c3ccc(OC)c(OC)c3)c(C(F)(F)F)oc2c1,1.39,-2.48
CC1CCCC(C)N1c1nnc(NC(=O)Cn2c(=O)oc3ccccc32)s1 (stereo unspecified),1.01,-1.91
COc1ccc(C2CC(=O)C3=C(C2)Nc2ccccc2NC3c2cc(F)ccc2F)cc1 (stereo unspecified),1.79,-0.06
Cc1ccc(-c2c(NCc3ccc(Cl)cc3)c(=O)c2=O)cc1,1.21,x
COc1ccc(OCC(=O)N2CCc3ccccc32)cc1,0.24,-0.33

# (listing goes on)
Compound,TAR Tat displ,CDC25B-CDK2 inh
CCOC(=O)COc1ccc2c(CC)cc(=O)oc2c1C,x,-0.62
CC(=O)Oc1ccccc1C1OC(COc2c(C)cccc2C)=NN1C(C)=O (stereo unspecified),1.29,x
O=C(CN1C(=O)CCS(=O)(=O)c2ccccc21)NC1CCCC1,0.62,-1.32
COc1cc(OC)c(NC(=O)C(C)Sc2nnc(-c3ccoc3C)o2)cc1Cl (stereo unspecified),1.72,-0.34
O=C1C2ON(c3ccccc3)C(c3ccccc3O)C2C(=O)N1c1ccc(Cl)cc1 (stereo unspecified),1.08,-1.33
O=S(=O)(c1cc(-c2noc(C3CC3)n2)cs1)N1CCN(c2ccc(Cl)cc2)CC1,0.89,x
Cc1ccc(OCCSc2ncn[nH]2)cc1,2.11,-0.32
COc1cc(C)ccc1OCCSc1nnc(-c2cccc(C)c2)o1,2.31,-0.41
CCc1ccc(OCCSc2nnc(-c3cccs3)o2)cc1,1.43,0.19
CCCCCCc1c(O)nc(SCC(=O)O)[nH]c1=O,7.06,0.38
c1ccc(CSc2nccc(-c3ccc4c(c3)CCO4)n2)cc1,x,-0.75

# Entries above that contain a nitro group on carbon:
Compound,TAR Tat displ,CDC25B-CDK2 inh
O=[N+]([O-])c1ccc(CO/N=C(/c2ccc(Cl)cc2)C2CC2)cc1,x,0.37
O=[N+]([O-])c1ccc(C2CC2(Br)Br)cc1 (stereo unspecified),x,-2.78
